Screening results deposited in PubChem by National Center for Advancing Translational Sciences (NCATS).
Giardia FBPA inh – qHTS Assay for Inhibitors of Fructose-1,6-bisphosphate Aldolase from Giardia Lamblia | A8B2U2 | Potency, µM (top dose mostly 59.6 µM), for the others: at the highest dose activity, negative = inhibition, usual class: inhibitors | AID 2451, 2010 | 290,000 tested, 0.71% active | purified Giardia FBPA; also: nearly all actives have a fitted effect of over 55% in size
Target sequence (A8B2U2 whole entry, looked up): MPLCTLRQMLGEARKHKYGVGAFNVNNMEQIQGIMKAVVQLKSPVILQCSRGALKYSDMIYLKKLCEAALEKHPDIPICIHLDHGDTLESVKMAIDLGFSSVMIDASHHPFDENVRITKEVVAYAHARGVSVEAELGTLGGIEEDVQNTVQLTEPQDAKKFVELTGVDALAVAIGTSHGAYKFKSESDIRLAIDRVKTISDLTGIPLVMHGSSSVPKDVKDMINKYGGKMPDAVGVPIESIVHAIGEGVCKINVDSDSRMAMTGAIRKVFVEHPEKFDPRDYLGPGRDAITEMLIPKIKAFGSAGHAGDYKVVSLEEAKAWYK
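Giardia FBPA (40 nM reagent) was preincubated 10 min at RT with compound (up to 57.5 uM final), then substrate plus GAPDH/TPI/NAD/arsenate coupling system with diaphorase/resazurin was added; resorufin fluorescence (525/598 nm) was read after 20 min.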
AmpC inh no detg – qHTS Inhibitors of AmpC Beta-Lactamase (assay without detergent); P00811; AmpC nitrocefin hydrolysis, absorbance 480 nm, 0.0001% Triton; Potency, µM (titrated, usually from 57.1 µM), without a hit: at the highest dose activity change, negative = inhibition, most hits filed as inhibitors; 330,000 tested, 0.52% active;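 also: plate controls were no compound for no effect and no enzyme for full effect; nearly all actives have a fitted effect of over 20% in size; some results filed as inactive show a strong effect at the top dose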
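AmpC (5.3 nM in the dispensed reagent) in 20 mM phosphate pH 7.0 with 0.01% (detergent screen) or 0.0001% Triton X-100 was preincubated with compounds for 15 min at room temperature. Nitrocefin was then added from an 800 uM solution, and hydrolysis was followed at 480 nm.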
AmpC inh detg – qHTS Inhibitors of AmpC Beta-Lactamase (assay with detergent); AmpC hydrolysis of nitrocefin, absorbance 480 nm, 0.01% Triton; Potency, µM (top dose mostly 114 µM), inactives show top-dose activity change, negative = inhibition, most hits filed as inhibitors; 370,000 tested, 0.041% active; AID 485294, 2010;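 also: 0% = no-compound wells and -100% = no-enzyme wells; nearly all actives have a fitted effect of over 25% in size; some results filed as inactive show a strong effect at the top dose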
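20 mM phosphate pH 7.0 + 0.01% (detergent screen) or 0.0001% Triton X-100; 5.3 nM AmpC reagent; cpd preinc 15 min RT; nitrocefin (800 uM stock) to start; A480 q20 s × 4 min; Activity was normalised to no-enzyme and no-compound control wells.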
* marks the source's active call; other numbers are inactive results; ? = inconclusive; . = not tested or not shown; & = joins results of further samples; [ ] = dose if it differs, or a comment. Calls follow the shape of the dose curve; as a rule, active = well fitted curve in the direction sought with a large enough effect; inconclusive = small, poorly fitted or top-dose-only effect, or another doubt; inactive = no such curve, though single readings can be large; an effect the other way counts as inactive or inconclusive. Unless noted, % is scaled to controls: 0 for no effect and ±100 for the full control effect; potency is read from the fitted curve at half-maximal effect.

nr	SMILES	Giardia FBPA inh	AmpC inh no detg	AmpC inh detg
1	Cc1cccc(NC(=O)c2nc(S(=O)(=O)Cc3ccccc3)ncc2Cl)c1	.	-22%	-10%
2	COC(=O)Nc1sc(C)nc1-c1ccccc1	11%	-10%	-5%
3	Cc1nc2ccccc2n1S(=O)(=O)c1ccc(F)cc1	?	-8%	-1%
4	CC/C(=C(\c1ccccc1)c1ccc(OCCN(C)C)cc1)c1ccccc1	2%	5%	?
5	CN1[C@H]2CC(OC(=O)[C@@H](CO)c3ccccc3)C[C@H]1[C@H]1O[C@H]12 (some centres undefined)	4%[21.7 µM]	.	.
6	Cc1ccc2c(c1)c(Sc1ccccc1)c(CC(=O)O)n2C	21%	-29%	6%
7	NCCCC[C@H](N[C@@H](CCc1ccccc1)C(=O)O)C(=O)N1CCC[C@H]1C(=O)O	-5%	-3%&-13%	-15%&0%
8	COc1ccc(/C(N)=N/OC(=O)CSc2ccccc2)cc1	-7%	-17%	1%
9	CCCOc1cc(NCc2ccccc2)c2ncn(C(C)C)c2c1	.	33%	7%
10	O=C(CSc1ncnc2ccccc12)NCc1ccc2c(c1)OCO2	2%	-17%	7%
11	O=C(O)COCCN1CCN(C(c2ccccc2)c2ccc(Cl)cc2)CC1 (centres undefined)	-20%&8%&-20%	63%[activator]	0%
12	CCOc1ccc(NC(=O)CSc2nc3ccsc3c(=O)n2CCCCCC(=O)O)cc1	.	.	8%
13	O=C(COc1ccc(Cl)cc1Cl)Nc1noc2ccccc12	5%	-33%	-6%
14	O=C1NC[C@@H](c2ccccc2)OC(=O)[C@H](Cc2ccc(F)cc2)CC/C=C/C[C@H]1CC(=O)N(CCO)Cc1ccccc1	.	245%[activator]	.
15	CCC1OC(=O)C(C)C(OC2C[C@@](C)(OC)C(O)C(C)O2)C(C)C(O[C@@H]2OC(C)CC(N(C)C)C2O)[C@](C)(O)CC(C)C(=NOCOCCOC)C(C)C(O)[C@]1(C)O (some centres undefined)	.	223%[activator]	?
16	CCN1CCN(CC(=O)Nc2cc(C(F)(F)F)ccc2OCCOC)CC1	6.3µM*	2%	-14%
17	O=C(O)Cn1nc(C(F)(F)F)c2c1CCCCC2	18%	-7%	?
18	CCOC(=O)c1c(C)n(Cc2ccco2)c2ccc(O)cc12	-13%	.	6%
19	O=C1NC[C@H](c2ccccc2)OC(=O)[C@@H](Cc2ccc(F)cc2)CC/C=C/C[C@H]1CC(=O)N(CCO)Cc1ccccc1	.	191%[activator]	.
20	Cc1ccc2c(CC(=O)N3CCN(S(=O)(=O)c4ccc5c(c4)OCCO5)CC3)coc2c1	1%	-7%	-15%
21	CC1OC1P(=O)(O)O (centres undefined)	-3%&11%	.	.
22	O=C1NC[C@@H](c2ccccc2)OC(=O)[C@@H](Cc2ccc(F)cc2)CC/C=C/C[C@H]1CC(=O)N(CCO)Cc1ccccc1	.	125%[activator]	.
23	COc1cc(S(=O)(=O)n2c(C)nc3ccccc32)ccc1F	-6%	-13%	-9%
24	Brc1cccc(OCCOCCn2ccnc2)c1	-28%	-20%	-2%

A portion of the library, so the mix of outcomes need not match the whole.
